# nsP2pro inh = CHIKV nsP2 protease inhibition, primary qHTS | FRET peptide cleavage, nsP2pro, fluorescence 1 h | Potency, µM (doses to about 24.9 µM), without a hit: at the highest dose activity change, negative = inhibition, hits mostly inhibitors | 1.1% of 31,000 active | AID 1964107; active means well fitted inhibition curve with a large enough effect; inconclusive means small, poorly fitted or top-dose-only effect; inactive means no such curve, though single readings can be large or run the other way; further: nearly all actives have a fitted effect of over 60% in size; a reference inhibitor and vehicle were the controls
# Numbers without * were called inactive; i = inactive; ? = inconclusive; & = joins results of further samples; [ ] = another dose, or the depositor's remark. On the % scale 0 is the no-effect control and ±100 the full control effect; potency means the concentration at half of the fitted maximal effect. Not all compounds are listed; rates above refer to the full screens.
Molecule	nsP2pro inh
O=C(NCCC1=CCCCC1)C1CCN(C(=O)N2CCOc3ccccc32)CC1	-4.2%
COC(=O)c1ccc(O)c2ncc(NC3CCNCC3)cc12	i
CCOc1ccc(CCNC(=O)CCSCc2cccc(Cl)c2)cc1OCC	-10.3%
CC1C(=O)CC2C3CCC(C(=O)O)C12CC3(C)CO (stereo not drawn)	38.1%[activator]
Cc1ccc(CNC(=O)c2ccc(CS(=O)Cc3cccc(Cl)c3)o2)cc1 (stereo not drawn)	-13.8%
CCOC(=O)[C@@H](N)Cc1ccc(-c2cc(O[C@H](c3ccc(Cl)cc3-n3ccc(C)n3)C(F)(F)F)nc(N)n2)cc1	58.0%&60.9%[activator]
COc1cc2nc(N3CCCCC3)nc(NC3CCN(Cc4ccccc4)CC3)c2cc1OC	27.8%
Cc1[nH]c2ccccc2c1C1(O)C(=O)Nc2ccc(Cl)cc21 (stereo not drawn)	-27.2%
Cc1ccc(NC(=O)C(C)C)cc1C1CCN(Cc2ccc(Oc3ccc(F)c(F)c3)cc2)CC1	40.7%[activator]
CCOc1cccc(CC(=O)N2CCc3c([nH]c4ccccc34)C2c2ccc(OC)cc2)c1OCC (stereo not drawn)	-11.3%
CC(C)CNc1ncnc2c1CN(C1CNC1)C(=O)CN2C	?
CCCCCNC(=O)C1CCC(Cn2c(=O)c3sccc3n(CC(=O)NCc3cccc(OC)c3OC)c2=O)CC1 (stereo not drawn)	-16.6%
Cc1ccc2nc3sc(C(=O)NC4CCCC4)cc3cc2c1	4.8%
COc1ccccc1CNC(=O)c1cc2c(N3CCSCC3)nc(C)cn2n1	i
COc1c(C)c2c(c(O)c1C/C=C(\C)CCC(=O)OCCN1CCOCC1)C(=O)OC2	-18.9%&-3.8%
COCCn1c2c(c(=O)n1-c1ccccc1)CCN(C(=O)c1cc3ccccc3n1C)C2	-4.5%[39.2 µM]
CNC(=O)c1c[nH]c2ccc(S(=O)(=O)Nc3cccc(Cl)c3C)cc2c1=O	7.9%
O=C(Nc1ccccc1)c1cnc(N2CCCCC2)c2ccccc12	13.5%
CC1CCC2C(C(=O)O)=CC3(O)CC(C)(C)CC123 (stereo not drawn)	-13.9%
COc1cc(-c2nc(N[C@H](CO)Cc3ccccc3)ccc2C(=O)NCCOc2ccccc2)cc(OC)c1OC	-3.7%
CC1OC(OC2C(OC3C(O[C@H]4CC[C@@]5(C)C(CC[C@]6(C)C5C(=O)CC5=C7CC(C)(C)CC(O)[C@]7(C)CC[C@]56C)C4(C)C)OC(C(=O)O)C(O)C3O)OCC(O)C2O)C(O)C(O)C1O (stereo partly drawn)	16.8%[5.1 µM]
Cc1ccc(-c2cc(-c3cccnc3)nc3c(C)noc23)c(C)c1	i
CC(C)C[C@@H]1NC(=O)[C@@H]2C[C@@]34C[C@@H]5[C@@]6(C)CCCC(C)(C)C6CC[C@@]5(C)N(c5ccccc53)[C@H]4N2C1=O (stereo partly drawn)	-8.0%[10 µM]
Nc1ccc(Nc2cc(O)c3ncccc3c2)cc1	2.6%
Cc1ccc(OCc2nc(-c3ccc(C(=O)NCc4ccc(OC(C)C)cc4)cc3)oc2C)cc1	-19.3%
Cc1ncoc1C(=O)N1CC[C@@H]2COCCN(Cc3ccncc3)[C@@H]2C1	-26.0%
CC1(C)[C@H](Cc2cc(CC3CCCCC3)on2)C[C@@H]1NC1CCOCC1	i
COc1ccc(-c2nc(C)c(CCNC(=O)C(=O)Nc3ccccc3OC)s2)cc1	-2.7%
Cc1ccc2c(c1)cc(C(=O)NCc1ccccc1C)n2C	-16.9%
COc1cc(O)c(C(=O)O)c(CCc2ccccc2)c1	-27.1%

# Three structures out of the list, sorted by SMILES length, rising.
Molecule	nsP2pro inh
O=C(NCCC1=CCCCC1)C1CCN(C(=O)N2CCOc3ccccc32)CC1	-4.2%
COc1c(C)c2c(c(O)c1C/C=C(\C)CCC(=O)OCCN1CCOCC1)C(=O)OC2	-18.9%&-3.8%
COc1cc(-c2nc(N[C@H](CO)Cc3ccccc3)ccc2C(=O)NCCOc2ccccc2)cc(OC)c1OC	-3.7%

# Carrying on.
Molecule	nsP2pro inh
Cc1cc(-c2ccc(C)c(S(=O)(=O)Nc3ccccn3)c2)on1	-11.2%
CCN(CC)CCCNC(=O)CN1C(=O)CCn2nc(-c3cn(C)c4ccccc34)cc21	-4.3%
COc1ccc(NS(=O)(=O)c2ccc3c(c2)CCN3C(=O)C2CC2)cc1OC	-12.6%
CN/C(=C\[N+](=O)[O-])NCCSCc1ccc(CN(C)C)o1	-10.9%
Cc1cccc(C)c1N(CCCc1cccnc1)C(=O)C(C)N (stereo not drawn)	11.9%
O=C(Nc1nc2cc(C(F)(F)F)ccc2s1)c1ccc(-c2cccc([N+](=O)[O-])c2)o1	-12.7%
COc1ccc(CN(C)Cc2ccoc2)cc1OCC(O)CN1CCCCC1 (stereo not drawn)	i
CCC(=O)N1CCc2cc(S(=O)(=O)CCC(=O)N3CCN(c4ccc(Cl)cc4)CC3)ccc21	-22.9%
Oc1ccc(Cl)cc1	-3.4%
CNC(=O)[C@@H]1CN(C(=O)Cc2cc(C)no2)C[C@H]1COC	4.9%
Cc1ccc(CNC(=O)CCCn2c(=O)c3ccccc3n(CC(=O)Nc3ccc(C)c(C)c3)c2=O)cc1	-8.6%
Cc1noc([C@H]2CCN(C(=O)NCc3ccccc3)C[C@H]2NC(=O)C2CCOCC2)n1	-2.3%
CCC(C)C(=O)OC1CC(O)C23C4OCC5(C(O)CC2C1(C)C(O)O4)C3C(=O)CC1(C)C(c2ccoc2)CC2OC215 (stereo not drawn)	-22.5%[10 µM]
NC(=O)c1ncn2c1CN=C(c1ccccc1Br)c1cc(F)ccc1-2	-2.0%
CCOC(=O)c1ccc(NC(=O)CC2C(=O)N(c3ccc(F)cc3)C(=O)N2Cc2ccc3c(c2)OCO3)cc1 (stereo not drawn)	-6.9%
COc1ccc(C2Nc3ccccc3C(=O)N2Cc2ccccc2)cc1COc1ccc(C)cc1 (stereo not drawn)	-6.6%
COc1ccc(C)c2sc(N(Cc3cccnc3)C(=O)CCc3ccccc3)nc12	-17.1%
Cc1cccc(CNc2ccnc(-c3cc(C(F)(F)F)cc(C(F)(F)F)c3)n2)c1	-23.3%
COc1ccc(C(=O)NCc2ccc3c(c2)CCN3C(=O)c2ccccc2)cc1	-13.2%
Cc1ccc2oc(NC3=NC4(CCCC4)C4=C(CCCC4=O)N3)nc2c1	i
CCCC1=CC2=C(CO1)C(=O)C(C)(OC(=O)c1c(C)cc(OC)cc1O)C(O)C2 (stereo not drawn)	-17.3%[10 µM]
CC(=O)Nc1sc2c(c1-c1cccc(N(C)C)c1)CCNC2	-1.6%
O=C(O)c1ccc(O)c2ncc(N3CCCN(CCc4ccncc4)CC3)cc12	i
CC(C)CN1CC(COc2ccc3ccccc3c2)Oc2ccnc(-c3ccc(OCC(=O)O)cc3)c2C1=O (stereo not drawn)	i
CC(C)(C)N(C[C@@H](O)[C@H](Cc1ccccc1)NC(=O)O[C@H]1CO[C@H]2OCC[C@H]21)[S+](=O)([O-])c1ccc(N)cc1	-1.4%
CCCN(CC)C(CC)C(=O)Nc1c(C)cccc1C (stereo not drawn)	-5.3%
Cc1ccn2c(Nc3ccc4c(c3)OCO4)c(-c3ccc(C)o3)nc2c1	-4.5%
CC(C)[C@H]1CCC(CO)=C[C@@H]1/C=C(\CO)C(=O)O	-13.4%
O=C(Nc1cc(-c2nc3ccccc3s2)ccc1Cl)c1cc2ccccc2o1	-12.9%
O=C(COC(=O)CNC(=O)c1ccccc1Cl)Nc1cc(C(F)(F)F)ccc1Cl	-1.1%
N#Cc1cccnc1-c1cccc(C(=O)NCCNC(=O)c2ccccc2)c1	4.4%
COC(=O)c1ccc(NC(=O)c2nn(C)c3c2CS(=O)(=O)c2ccccc2-3)cc1	-18.0%
CCOCCCNC(=O)CN1C(=O)CCn2nc(-c3cccn3C)cc21	?
Cc1cccc(CNC(=O)CCCN2C(=O)COc3ccc(C)cc32)c1	-18.0%
O=C(NCc1ccco1)c1ccc2c(c1)N(Cc1ccccc1F)C(=O)c1ccccc1S2=O (stereo not drawn)	-20.2%
Cc1ccc(C)c(SC2CS(=O)(=O)c3ccccc32)c1 (stereo not drawn)	-3.4%
Cc1ccn2c(Nc3ccc4c(c3)OCCO4)c(-c3ccccc3O)nc2c1	6.1%
CCOC(=O)CCC(=O)O[C@H]1[C@H](O[C@@H]2[C@@H](C)[C@H](O[C@H]3C[C@@](C)(OC)[C@@H](O)[C@H](C)O3)[C@@H](C)C(=O)O[C@H](CC)[C@@](C)(O)[C@H](O)[C@@H](C)C(=O)[C@H](C)CC2(C)O)O[C@H](C)C[C@@H]1N(C)C (stereo partly drawn)	-0.4%&-7.5%
OC(CNc1ccccc1)Cn1c2ccc(Br)cc2c2cc(Br)ccc21 (stereo not drawn)	-10.7%&-4.4%
CC1(C)C(=O)N(c2ccc(C#N)c(C(F)(F)F)c2)C(=O)N1CCCCO	-11.9%
CN(C)CCNC(=O)c1ccc2c(=O)n3c(nc2c1)CCCCC3	-16.2%
Cc1cc(O)cc(C)c1Cl	-2.1%&0.4%
O=C(O)CC1NCCNC1=O (stereo not drawn)	3.6%
Cc1ccc2scc(N3CCN(c4ccc(F)cc4)CC3)c(=O)c2c1	-25.2%
CC1(C)C(=O)N(CC2CCOCC2)[C@H]2CN(Cc3cccnc3N)C[C@H]2[S+]1(=O)[O-]	i
COc1ccc(-c2cn3c(n2)sc2cc(C(=O)Nc4cccc(SC)c4)ccc23)cc1	-9.5%
Nc1nc2c(nc(Sc3ccc(Cl)cc3)n2[C@@H]2O[C@@H]3COP(=O)(O)O[C@H]3[C@H]2O)c(=O)[nH]1	-12.0%
O=C(c1c[nH]c2ncccc12)N1CCC(Cc2ccccc2)CC1	i
CCC(C(=O)NC(N)=O)c1ccccc1 (stereo not drawn)	-0.2%
O=C(N[C@H]1CCC[C@H](CO)C1)C1CCN(c2nc3cc(Cl)c(-c4ccc(Cl)cc4)cc3o2)CC1	9.5%
O=c1c2sc3ccccc3c2n(Cc2cccc(C(F)(F)F)c2)c(=O)n1Cc1ccco1	-23.3%
Oc1cc(-c2ccncc2)cc2cccnc12	i
Cc1ocnc1C(=O)N1CCC2(CCCN(CCCc3ccccc3)C2=O)C1 (stereo not drawn)	-4.9%
CCCCCOc1cc2c(cc1-c1cc(/C=C/C(=O)O)ccc1O)C(C)(C)CCC2(C)C	209.6%[activator]
CCOc1ccc(NC(=O)c2ccc3c(SCC(=O)O)c4c(nc3c2)CCCC4)cc1	-10.1%
CNC(=O)[C@@H]1CN(C(=O)c2ccc(F)c(Cl)c2)C[C@H]1COC	-2.2%
CC1(C)CC[C@]23CO[C@@]4(CCC5[C@@]6(C)CC[C@H](O[C@@H]7OC[C@H](O[C@@H]8O[C@H](CO)[C@@H](O)[C@H](O)[C@H]8O)[C@H](O)[C@H]7O[C@@H]7O[C@H](CO)[C@@H](O[C@@H]8O[C@H](CO)[C@@H](O)[C@H](O)[C@H]8O)[C@H](O)[C@H]7O)[C@@](C)(CO)C6CC[C@@]5(C)[C@]4(C)C[C@H]2OC2OCC(O)C(O)C2O)C3C1 (stereo partly drawn)	0.4%[5.1 µM]
CC[C@@H](C)Nc1cc(C(=O)NC2CC3CCC(C2)N3c2ccc(C(=O)C3CC3)cn2)c(C)cc1C(N)=O (stereo partly drawn)	-1.2%
OCc1ccc(CN2C[C@H](O)C[C@H]2c2nc(-c3ccc(F)cc3)no2)o1	-24.8%[39.2 µM]
COc1ccc(Cn2c(=O)c3oc4ccccc4c3n(Cc3cccc(F)c3)c2=O)cc1	-9.8%

# Continued:
Molecule	nsP2pro inh
O=C1CO[C@H]2CN(c3ncccn3)C[C@H]2N1CC1CCCCC1	2.24µM*
Cc1ccccc1-c1cn(C)c(=O)n2cc(CNc3ccccc3)nc12	-25.4%[39.2 µM]
Cc1nc(-c2ccc(S(=O)(=O)Nc3ccc(OC(F)(F)F)cc3)cc2)co1	-13.8%
COc1ccc(-c2cnc3[nH]cc(CC(=O)N4CCNC(=O)C4)c3c2)cc1	-2.0%[39.2 µM]
CCCC/C=C\CCCCCc1cc(=O)c2ccccc2n1C	-0.6%
CCN(Cc1ccccc1)C(=O)C1CCN(c2ncnc3c2nc2n3CCCCC2)CC1	-13.5%
COc1ccc(C)cc1NC(=O)C1CCCN(S(=O)(=O)c2ccc3c(c2)CCCN3C(C)=O)C1 (stereo not drawn)	-15.1%
CC(=O)c1c(C)nn(CCC(=O)N[C@@H]2CCOC[C@H]2OCCO)c1C	i
Cc1cc2c(s1)c1cnn(Cc3cccc(C(F)(F)F)c3)c(=O)c1n2C	-2.7%
Cc1ccccc1CN1C(=O)c2ccccc2Sc2ccc(C(=O)N3CCCC3)cc21	-11.8%
Cc1cccc2sc(NC(=O)c3cccn(Cc4ccccc4)c3=O)nc12	-29.4%
CC(C)N=C(N)/N=C(\N)Nc1ccc(Cl)cc1	8.4%
OC[C@H]1O[C@H](OC[C@H]2O[C@H](O[C@]3(CO)O[C@H](CO)[C@@H](O)[C@@H]3O)[C@H](O)[C@@H](O)[C@@H]2O)[C@H](O)[C@@H](O)[C@H]1O	-17.8%

# Some of the entries so far, as labelled records.
canonical_smiles: CCOC(=O)[C@@H](N)Cc1ccc(-c2cc(O[C@H](c3ccc(Cl)cc3-n3ccc(C)n3)C(F)(F)F)nc(N)n2)cc1
  nsP2pro inh = 58.0%&60.9%[activator]
canonical_smiles: COc1ccc(Cn2c(=O)c3oc4ccccc4c3n(Cc3cccc(F)c3)c2=O)cc1
  nsP2pro inh = -9.8%
